B2AR ag – agonists of human beta-2 adrenergic receptor inducing internalization | response, % (test concentration not listed) | P07550 | Am2.2-beta2AR cells, FAP receptor internalization, flow cytometry; reference of the scale not given here | hit rate 0.43% among 340,000;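 active = response above a set limit, near 3 SD of response in nonfluorescent compounds, cut at about 42% in these data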;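 note: stock transfer was 100 nL into about 11 µL; a reference agonist was the positive control; negative values mostly stem from fluorescent compounds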
Target sequence (P07550 whole entry, looked up): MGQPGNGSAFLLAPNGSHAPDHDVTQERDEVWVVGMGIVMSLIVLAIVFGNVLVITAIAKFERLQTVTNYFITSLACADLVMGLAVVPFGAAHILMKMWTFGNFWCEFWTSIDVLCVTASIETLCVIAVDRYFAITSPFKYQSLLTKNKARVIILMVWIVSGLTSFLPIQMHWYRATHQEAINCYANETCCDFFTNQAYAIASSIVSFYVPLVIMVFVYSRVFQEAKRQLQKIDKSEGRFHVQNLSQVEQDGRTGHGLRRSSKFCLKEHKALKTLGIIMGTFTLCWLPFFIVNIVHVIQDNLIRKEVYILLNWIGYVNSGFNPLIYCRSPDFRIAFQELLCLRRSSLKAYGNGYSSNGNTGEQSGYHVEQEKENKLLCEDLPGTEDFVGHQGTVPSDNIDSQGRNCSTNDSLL
Ecoli growth – inhibitors of Escherichia coli growth | hit rate 0.21% among 330,000 | OD600, 23 h; stronger effect = lower value | OD600 absorbance (test concentration not listed) | AID 1053175;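 active = OD600 absorbance below the run mean of sample wells minus 3.6 SD, in any replicate, cut at about 0.56 in these data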;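 note: stock transfer was 300 nL into about 60 µL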
UCH37 inh – inhibitors of human deubiquitinating enzyme UCH37 | purified proteasome/UCH37, Ub-AMC cleavage fluorescence | inhibition, % (no concentration beside the values) | hit rate 0.33% among 330,000;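 active = mean of two replicates above 20%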;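 note: 0% = compound-free wells with enzyme and 100% = wells lacking proteasome; stock transfer was 100 nL into about 20 µL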
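system = Proteasome-associated human UCH37 deubiquitinase | amount = 0.15 nM proteasome as dispensed | medium = pH 7.4 Tris-HCl (50 mM) with ovalbumin, ATP-MgCl2, DTT | incubation = 30 min preincubation with enzyme, 25 min cleavage at room temperature | detection = AMC fluorescence 355/460 nm | read-out basis = percent inhibition | controls = no-proteasome and no-compound wells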
Ecoli rRNA inh – inhibits bacterial ribosomal RNA function over humanized ribosomes | E. coli WT GFP vs humanized-ribosome RFP mutants, fluorescence, 24 h; stronger effect = lower value; DMSO median 0, no signal -100 | GFP signal change (wild-type ribosome), % (no concentration beside the values) | hit rate 1.6% among 350,000;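 active = significant combined selectivity score with lowered wild-type GFP, culture density cut under 30%, mutant RFP and density less affected; inactive = any of these conditions unmet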; note: one replicate is shown; some compounds called inactive have numbers as strong as hits
HNF4A DNA FP – change in binding of human HNF4 alpha to DNA; P41235; AID 1224865; hit rate 0.3% among 360,000; HNF4a-FITC DNA binding, fluorescence polarization, 1 h; activity change, % at 10 µM; in the data active = activity change above about 30%, passing the limit was not always enough;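 note: controls were the assay level and a saturating level of protein; the project sought stronger binding though the title names inhibitors; some compounds called inactive have numbers as strong as hits; positive values seem to mean higher polarization but the record does not say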
FGF22 binding – FGF22 (human) thermal shift binding; Q9HCT0; recombinant FGF22 thermal shift, SYPRO orange fluorescence; percent of sucrose octasulfate shift, DMSO zero; calls only at 9.99 µM; hit rate 1.5% among 340,000; AID 651658;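 active = melting point raised past a set limit in the mean and every replicate; three in four hits are not shown here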
Target sequence (Q9HCT0 whole entry, looked up): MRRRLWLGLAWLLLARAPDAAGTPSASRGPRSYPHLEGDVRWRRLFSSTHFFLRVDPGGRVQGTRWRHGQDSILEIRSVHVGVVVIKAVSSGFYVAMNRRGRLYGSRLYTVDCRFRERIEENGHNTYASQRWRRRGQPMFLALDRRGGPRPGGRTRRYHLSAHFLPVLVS
ALR inh – inhibitors of human sulfhydryl oxidase ALR. hit rate 3.8% among 290,000. inhibition, % (concentration not given with the values). purified ALR, DTT oxidation, H2O2 HRP-luminol luminescence. P55789;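 active = mean and each replicate at 75% or more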;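 note: stock transfer was 7.5 nL into about 7.5 µL; 0% = neutral wells and 100% = wells with inactivated enzyme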
Target sequence (P55789 whole entry, looked up): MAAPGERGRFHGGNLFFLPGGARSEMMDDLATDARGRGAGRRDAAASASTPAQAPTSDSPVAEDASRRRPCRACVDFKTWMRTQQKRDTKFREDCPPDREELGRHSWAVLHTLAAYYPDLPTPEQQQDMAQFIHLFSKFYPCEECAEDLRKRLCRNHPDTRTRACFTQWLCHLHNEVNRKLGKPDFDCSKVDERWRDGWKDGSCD
Ecoli rRNA inh OD600 – also measured in Ecoli rRNA inh; calls as there; OD600 change, %; measured here: OD600 growth;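 optical density of the mix in the first replicate; 0 = DMSO median and -100 = no signal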
Ecoli rRNA inh RFP – further read-out of Ecoli rRNA inh, marked with its call; RFP signal change, %; measured here: RFP humanized mutant strains;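 first replicate; 0 = DMSO median and -100 = no signal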
Numbers without * were called inactive; & = joins results of further samples. The list is partial, so the mix of outcomes need not match the whole.

Sample of the layout, 4 compounds:
Screening Cc1ccc(NC(=O)c2ccc(OCC3CCCO3)cc2)cc1 (stereo not drawn) returned B2AR ag -1, Ecoli growth 0.68, UCH37 inh 6.2, Ecoli rRNA inh 4, HNF4A DNA FP -0.2, FGF22 binding inactive, ALR inh -5, Ecoli rRNA inh OD600 5 and Ecoli rRNA inh RFP 9.8.
`N#Cc1c(NC(=O)COC(=O)c2ccc(F)cc2)sc2c1CCC2` gave B2AR ag -1, Ecoli growth 0.69, UCH37 inh -0.6, Ecoli rRNA inh -9, HNF4A DNA FP 1.1, FGF22 binding inactive, ALR inh -9, Ecoli rRNA inh OD600 -9 and Ecoli rRNA inh RFP 6.0.
`CCCC(=O)N1CCC1(C)C(=O)Nc1ccc(C)c(C)c1` (stereo not drawn) gave Ecoli rRNA inh 6, HNF4A DNA FP -1.0, FGF22 binding inactive, Ecoli rRNA inh OD600 2 and Ecoli rRNA inh RFP 1.3.
For CCOc1ccccc1N(C)C(=O)c1cn(CC)c(=O)c2cc(OC)c(OC)cc12 the results were B2AR ag 3, Ecoli growth 0.67, UCH37 inh 1.8, Ecoli rRNA inh 4, HNF4A DNA FP -0.8, FGF22 binding inactive, Ecoli rRNA inh OD600 9 and Ecoli rRNA inh RFP -0.2.

The listing, from the start:
Screening Cc1ccc(NC(=O)c2ccc(OCC3CCCO3)cc2)cc1 (stereo not drawn) returned B2AR ag -1, Ecoli growth 0.68, UCH37 inh 6.2, Ecoli rRNA inh 4, HNF4A DNA FP -0.2, FGF22 binding inactive, ALR inh -5, Ecoli rRNA inh OD600 5 and Ecoli rRNA inh RFP 9.8.
`N#Cc1c(NC(=O)COC(=O)c2ccc(F)cc2)sc2c1CCC2` gave B2AR ag -1, Ecoli growth 0.69, UCH37 inh -0.6, Ecoli rRNA inh -9, HNF4A DNA FP 1.1, FGF22 binding inactive, ALR inh -9, Ecoli rRNA inh OD600 -9 and Ecoli rRNA inh RFP 6.0.
`CCCC(=O)N1CCC1(C)C(=O)Nc1ccc(C)c(C)c1` (stereo not drawn) gave Ecoli rRNA inh 6, HNF4A DNA FP -1.0, FGF22 binding inactive, Ecoli rRNA inh OD600 2 and Ecoli rRNA inh RFP 1.3.
For CCOc1ccccc1N(C)C(=O)c1cn(CC)c(=O)c2cc(OC)c(OC)cc12 the results were B2AR ag 3, Ecoli growth 0.67, UCH37 inh 1.8, Ecoli rRNA inh 4, HNF4A DNA FP -0.8, FGF22 binding inactive, Ecoli rRNA inh OD600 9 and Ecoli rRNA inh RFP -0.2.
C=C1c2cc(C)ccc2NC(=O)N1c1ccccc1 was read as B2AR ag -4, Ecoli growth 0.66, UCH37 inh -4.0, Ecoli rRNA inh -3, HNF4A DNA FP -0.7, FGF22 binding inactive, ALR inh -7, Ecoli rRNA inh OD600 2 and Ecoli rRNA inh RFP -4.1.
O=C(/C=C/c1ccc(Cl)c(Cl)c1)NCCCn1ccnc1 was read as B2AR ag -7, Ecoli growth 0.67, UCH37 inh 5.5, Ecoli rRNA inh -15, HNF4A DNA FP 5.5, FGF22 binding inactive, ALR inh -1, Ecoli rRNA inh OD600 -26 and Ecoli rRNA inh RFP -3.4.
For C[C@H](CO)N1C[C@H](C)[C@@H](CN(C)S(=O)(=O)c2ccc(Oc3ccccc3)nc2)OCc2cnnn2CCCC1=O the results were Ecoli rRNA inh 4&-2, HNF4A DNA FP -1.7, FGF22 binding inactive, Ecoli rRNA inh OD600 4&-5 and Ecoli rRNA inh RFP 1.0&2.4.
`COC(=O)c1ccccc1NC(=O)CSc1n[nH]c(CC(C)C)n1` gave B2AR ag 10, Ecoli growth 0.77, UCH37 inh 1.0, HNF4A DNA FP 0.9 and ALR inh -3.
Screening CCOc1ccc(CCNC(=O)CN2C(=O)NC3(CCCCC3)C2=O)cc1OCC returned B2AR ag -3, Ecoli growth 0.71, UCH37 inh 1.4, Ecoli rRNA inh 5, HNF4A DNA FP -0.5, ALR inh -3, Ecoli rRNA inh OD600 5 and Ecoli rRNA inh RFP -1.1.
For Cc1ccc(NC(=O)c2cc(S(=O)(=O)Nc3ccc(C)cc3)cs2)cc1 the results were B2AR ag 7, Ecoli growth 0.64, UCH37 inh 2.3 and HNF4A DNA FP -0.7.
For CCCNC(=O)C1(C)CCCN(Cc2cccc(Oc3ccccc3)c2)C1 (stereo not drawn) the results were Ecoli rRNA inh -23, HNF4A DNA FP -0.5, FGF22 binding inactive, Ecoli rRNA inh OD600 -12 and Ecoli rRNA inh RFP -10.
Screening C#CCOCCOCCOCCNc1nc(N2CCOCC2)nc(N2CCN(C(=O)CCCCCCCCCCNC(=O)[C@H]([C@@H](C)CC)n3cc(CCCCN=C(N)N)nn3)CC2)n1 returned B2AR ag 11, Ecoli rRNA inh -54, HNF4A DNA FP 1.6, FGF22 binding inactive, ALR inh -2, Ecoli rRNA inh OD600 -80 and Ecoli rRNA inh RFP -30.
COc1cc(-c2cc3nc(NCCN(C)C)ccn3n2)cc(OC)c1OC was read as Ecoli rRNA inh 1, HNF4A DNA FP 1.2, FGF22 binding inactive, Ecoli rRNA inh OD600 9 and Ecoli rRNA inh RFP 4.3.
`CCOC(=O)c1cccc(Nc2ncnc3ccccc23)c1` gave B2AR ag 8, Ecoli growth 0.76, UCH37 inh -15, HNF4A DNA FP -1.4 and ALR inh 0.
Screening Cc1cccc(NC(=S)NNC(=O)CCn2nc(C)c([N+](=O)[O-])c2C)c1 returned B2AR ag 5, Ecoli growth 0.65, UCH37 inh 3.2, HNF4A DNA FP 0.0 and ALR inh 4.
For Cc1ccccc1NC(=O)C1Cc2ccccc2CN1C(=O)c1ccco1 (stereo not drawn) the results were B2AR ag 3, Ecoli growth 0.68, UCH37 inh -0.7, Ecoli rRNA inh -1, HNF4A DNA FP 1.2, FGF22 binding inactive, Ecoli rRNA inh OD600 10 and Ecoli rRNA inh RFP 0.2.
Screening Cc1cc(NC(=O)CN2C(=O)NC(CC(C)C)C2=O)ccc1Br (stereo not drawn) returned B2AR ag 7, Ecoli growth 0.64, UCH37 inh 2.4, Ecoli rRNA inh -7, HNF4A DNA FP 0.2, FGF22 binding inactive, ALR inh 0, Ecoli rRNA inh OD600 -6 and Ecoli rRNA inh RFP -1.0.
Screening CCOc1ccccc1-n1c(SCC(=O)N2CCCc3ccccc32)nnc1-c1cccnc1 returned B2AR ag 0, Ecoli growth 0.68, UCH37 inh 2.0, HNF4A DNA FP 5.1 and ALR inh -7.
For CC(=O)NS(=O)(=O)c1ccc(NS(=O)(=O)c2ccc(F)cc2)cc1 the results were B2AR ag 7, Ecoli growth 0.71, UCH37 inh 1.3, HNF4A DNA FP 1.0 and ALR inh 3.
`Cc1c(Cl)cccc1NC(=O)Cn1c(CCC(=O)O)ccc1-c1ccc(Cl)cc1` gave B2AR ag -1, Ecoli growth 0.66, UCH37 inh -3.6, Ecoli rRNA inh -4, HNF4A DNA FP -3.0, FGF22 binding inactive, Ecoli rRNA inh OD600 2 and Ecoli rRNA inh RFP 0.4.
Screening O=C(CCCN1C(=O)c2cccc3cccc(c23)C1=O)N1CCN(c2ccccc2)CC1 returned B2AR ag -2, Ecoli growth 0.69, UCH37 inh -2.1, Ecoli rRNA inh 9, HNF4A DNA FP 2.8, FGF22 binding inactive, ALR inh 8, Ecoli rRNA inh OD600 8 and Ecoli rRNA inh RFP -2.9.
CCOC(=O)CSc1nc2ccc(NC(=O)CSc3nnnn3Cc3ccccc3)cc2s1 was read as B2AR ag 54*, Ecoli growth 0.69, UCH37 inh 0.9, HNF4A DNA FP -0.6 and ALR inh -9.
Cc1ccc(/C=C/C(=O)NC(=S)N2CCN(C)CC2)cc1 was read as B2AR ag 0, Ecoli growth 0.67, UCH37 inh 6.2, Ecoli rRNA inh 18, HNF4A DNA FP 0.5, FGF22 binding inactive, ALR inh 7, Ecoli rRNA inh OD600 12 and Ecoli rRNA inh RFP -1.8.
`Cc1ccc(OCC(=O)NNC(=O)CSC(=S)N2CCCC2)cc1` gave B2AR ag -6, Ecoli growth 0.64, UCH37 inh 0.4, Ecoli rRNA inh -2, HNF4A DNA FP -0.1, Ecoli rRNA inh OD600 7 and Ecoli rRNA inh RFP 0.7.
`COc1cc(/C=N/Nc2ccc(C(F)(F)F)cn2)cc(OC)c1O` gave B2AR ag 2, Ecoli rRNA inh 15, HNF4A DNA FP -1.8, Ecoli rRNA inh OD600 4 and Ecoli rRNA inh RFP -1.4.
`CC(Oc1ccc2c3c(c(=O)oc2c1)CCC3)C(=O)NCC1CCC(C(=O)O)CC1` (stereo not drawn) gave B2AR ag 0, Ecoli growth 0.7, UCH37 inh -26, HNF4A DNA FP -5.5, FGF22 binding inactive and ALR inh -15.
`Cc1ccc(/C(O)=C2\C(=O)C(=O)N(Cc3cccnc3)C2c2ccccc2[N+](=O)[O-])cc1` (stereo not drawn) gave B2AR ag 1, Ecoli growth 0.71, UCH37 inh 9.8, Ecoli rRNA inh -36, HNF4A DNA FP 0.1, FGF22 binding inactive, ALR inh 5, Ecoli rRNA inh OD600 -56 and Ecoli rRNA inh RFP -28.
Screening CC(=O)N1CCc2cc(S(=O)(=O)Nc3cccc(C(F)(F)F)c3)ccc21 returned B2AR ag -6, Ecoli growth 0.69, UCH37 inh 5.4, HNF4A DNA FP 1.7 and ALR inh -3.
`CN(C)c1cccc(C(=O)OC(C(=O)Nc2ccc(Cl)cc2C(F)(F)F)c2ccccc2)c1` (stereo not drawn) gave B2AR ag 14, Ecoli growth 0.7, UCH37 inh -157 and HNF4A DNA FP 0.9.
COc1ccc(S(=O)(=O)N2CCOCC2)cc1C(=O)N1CCCCC1 was read as B2AR ag 7, Ecoli growth 0.72, UCH37 inh 1.5, Ecoli rRNA inh 7, HNF4A DNA FP 1.9, FGF22 binding inactive, ALR inh 1, Ecoli rRNA inh OD600 10 and Ecoli rRNA inh RFP 3.5.
Screening Cc1cc(S(=O)(=O)NC2CC(C)(C)NC(C)(C)C2)c(Cl)cc1Cl returned B2AR ag -1, Ecoli growth 0.65, UCH37 inh 2.3, Ecoli rRNA inh 8, HNF4A DNA FP -0.2, FGF22 binding inactive, ALR inh -12, Ecoli rRNA inh OD600 7 and Ecoli rRNA inh RFP 0.1.
Cc1ccc(CN2CCN(Cc3c(C)nn(-c4ccc(F)cc4)c3C)CC2CCO)o1 (stereo not drawn) was read as B2AR ag 0, Ecoli growth 0.68, UCH37 inh -3.4, Ecoli rRNA inh 18, HNF4A DNA FP -0.1, FGF22 binding inactive, Ecoli rRNA inh OD600 6 and Ecoli rRNA inh RFP -5.8.
`Cc1ccc(S(=O)(=O)NCCC(=O)Nc2nccs2)cc1` gave B2AR ag 4, Ecoli growth 0.63, UCH37 inh 1.1, Ecoli rRNA inh 13, HNF4A DNA FP -1.8, FGF22 binding inactive, ALR inh -9, Ecoli rRNA inh OD600 11 and Ecoli rRNA inh RFP -1.3.
Screening CC1(C)Cc2c(sc3c2C(=O)N(c2ccccc2)C2=NCCN23)CS1 returned B2AR ag -8, Ecoli growth 0.7, UCH37 inh -17, HNF4A DNA FP -2.0 and ALR inh -4.
For NC(=S)N/N=C/c1ncc(C(F)(F)F)cc1Cl the results were B2AR ag 18, HNF4A DNA FP -1.6 and ALR inh -4.
Cc1noc(NS(=O)(=O)c2ccc(N/C=C\C(=O)c3cccc4ccccc34)cc2)c1C was read as B2AR ag -5, Ecoli growth 0.65, UCH37 inh 6.5, Ecoli rRNA inh -21*, HNF4A DNA FP 1.1, ALR inh 6, Ecoli rRNA inh OD600 -16* and Ecoli rRNA inh RFP -1.9*.
COc1ccccc1Oc1ccc(NC(=O)Cc2ccccc2)cc1 was read as B2AR ag -5, Ecoli growth 0.7, UCH37 inh 7.6, Ecoli rRNA inh -1, HNF4A DNA FP -1.1, FGF22 binding inactive, Ecoli rRNA inh OD600 1 and Ecoli rRNA inh RFP 0.7.

Bioassay records from PubChem BioAssay.
